Menin MLL FP FL – inhibitors of human menin-MLL interaction, wild-type MLL peptide. Fluorescence polarization, fluorescein-MLL peptide displacement from menin. FP activity change, % at 61.4 µM. 290,000 tested, under 10 active. AID 1766; inconclusive = falling polarisation curve, or a change in total fluorescence; inactive = total fluorescence flat and polarisation flat or rising; no compound was filed as active; the % refers to the polarisation; negative = inhibition;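 further: % of control where 0% means no effect; inhibitors lower the polarisation; unlabelled MLL peptide was the positive control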
gsp antag – antagonists of gsp mutant (McCune-Albright syndrome); gsp-mutant cells, cAMP HTRF, 30 min; control for the full effect not named in the record; Potency, µM (highest dose often 76.9 µM), for the others: at the highest dose activity change, negative = inhibition, hits mostly inhibitors; actives 0.4% (n = 340,000); AID 624288; active = falling curve of any shape with a large fitted effect; inconclusive = falling curve, mostly with a smaller effect; inactive = flat or rising curve; cell line not stated here;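 further: intracellular cAMP measured with PDE inhibitor Ro 20-1724 present during compound exposure; potency means the concentration at half of the fitted maximal effect; on the % scale 0 is the no-effect control and ±100 the full control effect; nearly all actives have a fitted effect of over 65% in size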
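Cells in G418 medium, seeded 16-24 h, 37C; buffer exchange to DPBS + 1 mM CaCl2, 0.5 mM MgCl2, 0.05% BSA; cpds in DMSO + […] (300 uM stock), 30 min 37C; HTRF cAMP detection.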
PINK1 expr mod – modulators of PINK1 expression; Potency, µM (top dose mostly 76.6 µM), without a hit: at the highest dose activation (PINK1 increase), most hits filed as activators; AID 624263; PINK1 immunofluorescence, high-content cytometry, 24 h; actives 0.2% (n = 410,000); active = well fitted activation curve with a large enough effect; inconclusive = small, poorly fitted or top-dose-only effect; inactive = flat fitted curve, though single readings scatter; cell line not stated here;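 further: potency means the concentration at half of the fitted maximal effect; % of control where 0% means no effect; nearly all actives have a fitted effect of over 65% in size; a mitochondrial uncoupler was the plate control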
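A stable cell line was treated with compounds at 5 concentrations for 24 hours, with CCCP as control. PINK1 levels and mitochondrial localization were measured by immunofluorescence with mitochondrial, cell and nuclear markers after fixation, read by laser-scanning cytometry.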
Sfp inh – inhibitors of Bacillus subtilis Sfp phosphopantetheinyl transferase. Q9F4F7. Biochemical Sfp PPTase activity, qHTS. Potency, µM, without a hit: max response, negative = inhibition, usual class: inhibitors. actives 3.5% (n = 310,000); active means well fitted inhibition curve with a large enough effect; inconclusive means small, poorly fitted or top-dose-only effect, or another doubt; inactive means no such curve, though single readings can be large or run the other way;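 further: the enzyme is Sfp with the accession as filed and its product quenches rhodamine fluorescence; potency means the concentration at half of the fitted maximal effect; 0% = enzyme reaction without inhibitor and -100% = no enzyme wells; top concentration of the series not given in the record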
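Fluorescence-quenching assay with 15 nM Sfp, 5 uM rhodamine-CoA and 12.5 uM BHQ-2-labelled ybbR peptide in pH 7.6 Hepes/MgCl2 buffer. Enzyme was pre-incubated with compound for 15 min at room temperature. Rate was taken from the 30-min fluorescence change (525/598 nm).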
ClpP mod – qHTS Assay for Activators of ClpP. ATP-dependent Clp protease proteolytic subunit (Bacillus subtilis (strain 168)), P80244. purified B. subtilis ClpP, FRET peptide cleavage, 20 min. Potency, µM (highest dose often 57.5 µM), inactives show top-dose activity change, negative = active. actives 1.9% (n = 340,000). AID 651965, 2013; active = well fitted falling curve with a large enough effect; inconclusive = small, poorly fitted or top-dose-only effect; inactive = no such curve, though single readings can be large or run the other way; further: potency means the concentration at half of the fitted maximal effect; the source files actives as falling curves though it sought activators and does not explain the sign; nearly all actives have a fitted effect of over 65% in size; many hits overshoot -100%
Target sequence (P80244 whole entry, looked up): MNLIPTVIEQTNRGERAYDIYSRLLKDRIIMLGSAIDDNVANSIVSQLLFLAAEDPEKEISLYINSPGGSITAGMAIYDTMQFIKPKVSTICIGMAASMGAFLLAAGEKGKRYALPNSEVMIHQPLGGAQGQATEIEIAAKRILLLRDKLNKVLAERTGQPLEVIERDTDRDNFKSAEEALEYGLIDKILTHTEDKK
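FRET quenching reversal measured ClpP activation: 10 microg/mL B. subtilis ClpP at pH 8 with the FRET-FV decapeptide, read at 430 nm after 320 nm excitation. The 20-min minus 0-min signal was scaled between DMSO/no-enzyme wells and ADEP (5.8 microM final).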
gsp agonist – gsp mutant agonism; gsp mutant cells, cAMP HTRF, 30 min; control for the full effect not named in the record; actives 0.13% (n = 340,000); Potency, µM (top dose mostly 76.9 µM), for the others: top-dose activation (cAMP increase), most hits filed as activators; AID 624287; active = well fitted activation curve with a large enough effect; inconclusive = small, poorly fitted or top-dose-only effect, or another doubt; inactive = no such curve, though single readings can be large or run the other way; cell line not stated here;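 further: phosphodiesterase inhibitor Ro 20-1724 added with compounds to block cAMP breakdown; potency means the concentration at half of the fitted maximal effect; nearly all actives have a fitted effect of over 60% in size; about a fifth of the inactives were tested at one dose only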
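Cells in DMEM/10% FBS with G418 were pretreated with compounds in DMSO plus […] (300 uM stock) for 30 min at 37C. cAMP was measured by HTRF (cAMP-d2 plus anti-cAMP antibody-K) after 30 min at room temperature.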
D2 ag – agonists of human D2 dopamine receptor (beta-arrestin). actives 0.084% (n = 360,000). activation, % (concentration not given with the values). P14416. AID 624465. DiscoveRx PathHunter D2 beta-arrestin, luminescence, 90 min; 100% = 57 uM dopamine signal; in the data active = activation above about 40%; inconclusive = about 15% to 40%; inactive = below about 15%; further: compound concentration not given in the record; the text of the record calls up to 30% inactive
Target sequence (P14416 whole entry, looked up): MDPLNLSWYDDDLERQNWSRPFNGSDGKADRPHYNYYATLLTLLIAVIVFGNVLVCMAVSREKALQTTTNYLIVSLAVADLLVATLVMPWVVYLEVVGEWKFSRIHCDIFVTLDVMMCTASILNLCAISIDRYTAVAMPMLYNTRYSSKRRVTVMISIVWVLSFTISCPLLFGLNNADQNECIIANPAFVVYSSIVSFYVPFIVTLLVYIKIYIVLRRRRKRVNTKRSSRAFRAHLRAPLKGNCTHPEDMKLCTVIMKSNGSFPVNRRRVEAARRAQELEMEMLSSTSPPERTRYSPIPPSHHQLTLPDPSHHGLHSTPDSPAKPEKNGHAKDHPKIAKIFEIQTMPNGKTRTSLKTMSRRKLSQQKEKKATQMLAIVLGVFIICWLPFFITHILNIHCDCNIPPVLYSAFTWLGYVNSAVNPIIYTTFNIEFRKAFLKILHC
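Agonist mode: compounds alone added to overnight-plated D2 PathHunter cells for 90 min at 37 C, with 57 uM final dopamine (EC100) defining full response. Beta-arrestin recruitment detected by chemiluminescent reagent, read after 1 h at ambient temperature.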
Starred values were filed as active, the others as inactive; ? = inconclusive; / = no result given; & = joins results of further samples; [ ] = dose if it differs, or a comment.

A first look:
SMILES | Menin MLL FP FL | gsp antag | PINK1 expr mod | Sfp inh | ClpP mod | gsp agonist | D2 ag
Cc1ccc(C(=O)NCc2ccccn2)cc1NC1=NC2CS(=O)(=O)CC2S1 (stereo unspecified) | -2.7 | 10% | 0.0% | 13% | -0.8% | -14% | -3.1
O=C(/C=C/c1ccco1)NC(=S)Nc1ccccc1N1CCCC1 | ? | -5% | 2.3% | 27% | -1.7% | 18% | -2.8
O=C(CN1CCN(c2ccc(F)cc2)CC1)N1CCC(Cc2ccccc2)CC1 | -0.2 | 3% | / | -21% | -1.4% | -1% | 1.5
O=C(Oc1ccc2c(c1)C(=O)c1ccccc1CO2)c1ccccc1 | 8.1 | 4% | -1.5% | -14% | -2.3% | -2% | -2.4

The whole of this part (from the top)
SMILES | Menin MLL FP FL | gsp antag | PINK1 expr mod | Sfp inh | ClpP mod | gsp agonist | D2 ag
Cc1ccc(C(=O)NCc2ccccn2)cc1NC1=NC2CS(=O)(=O)CC2S1 (stereo unspecified) | -2.7 | 10% | 0.0% | 13% | -0.8% | -14% | -3.1
O=C(/C=C/c1ccco1)NC(=S)Nc1ccccc1N1CCCC1 | ? | -5% | 2.3% | 27% | -1.7% | 18% | -2.8
O=C(CN1CCN(c2ccc(F)cc2)CC1)N1CCC(Cc2ccccc2)CC1 | -0.2 | 3% | / | -21% | -1.4% | -1% | 1.5
O=C(Oc1ccc2c(c1)C(=O)c1ccccc1CO2)c1ccccc1 | 8.1 | 4% | -1.5% | -14% | -2.3% | -2% | -2.4
OCC1O[C@@H](OC2C(O)C(CO)O[C@@]2(CO)O[C@@H]2OC(CO)C(O)C(O)C2O)C(O)C(O)C1O (stereo partly specified) | 0.3 | / | 3.5% | 4% | / | / | /
Cc1ccc(NC2c3ccccc3C(=O)N2CCN2CCOCC2)cc1 (stereo unspecified) | 1.0 | 4% | 0.2% | -3% | -0.7% | 9% | -3.6
CCOc1ccc(C(=O)NC(=S)NC2CCCC2)cc1[N+](=O)[O-] | 2.7 | -13% | 3.1% | -14% | -1.6% | -44%[inhibitor] | -1.8
O=C(Cn1ncc2c(=O)oc3ccccc3c21)NCCc1ccsc1 | 1.2 | -3% | -0.5% | 18% | 0.9% | ? | -7.0
Cc1c(C(=O)N/N=C/c2ccc(O)c(Br)c2)sc(N)c1C#N | 16 | -2% | 5.5% | -11% | -9.7% | 6% | 1.2
CCOC(=O)c1c(NC(=O)C2=COCCO2)sc2c1CCN(C(=O)OC)C2 | / | -22% | 18% | / | ? | -58%[inhibitor] | 4.2
CCCCn1c(SCC(=O)c2ccc(OC)cc2OC)nc2cc(S(N)(=O)=O)ccc21 | 8.6 | -2% | 2.6% | -12% | -3.3% | 7% | 0.3
Cc1ccc(C(=O)Nc2cc3c(cc2N2CCCCC2)n(C)c(=O)n3C)cc1 | -2.4 | 13% | 0.2% | 9% | -2.1% | ? | 5.3
CCNC(=O)c1sc(-c2ccccc2)nc1C | 2.2 | 2% | 4.2% | 20% | -6.0% | 5% | 0.3
O=C(NC(=S)NN1CCCCC1c1cccnc1)c1ccc(Cl)cc1Cl (stereo unspecified) | 3.5 | -5% | 1.9% | 10% | / | 17% | -5.0
CC(C)(C)N1C(=O)c2ccc(C(=O)Nc3ccc(-c4nc5ccccc5[nH]4)cc3)cc2C1=O | 1.8 | 2% | 6.4% | 11% | ? | -11%[15.4 µM] | -6.9
CCN(CC)CCN1C(=O)C(=O)/C(=C(/O)c2c(C)[nH]c(C(=O)OC)c2C)C1c1ccc(C)o1 (stereo unspecified) | -7.8 | -3% | 1.4% | -12% | / | 4%[15.4 µM] | 1.2
CCNC(=S)N1CCN(S(=O)(=O)c2ccccc2C(F)(F)F)CC1 | -0.4 | 1% | 1.7% | 12% | / | 2%[15.4 µM] | -2.3
CCc1cc2cc(OC)ccc2nc1SCC(=O)NNC(=O)c1ccco1 | -1.9 | -6% | 4.8% | 8% | / | 4%[15.4 µM] | -1.4
Cc1ccc(S(=O)(=O)N[C@H](C(=O)Oc2ccc3c(C(F)(F)F)cc(=O)oc3c2)c2ccccc2)cc1 | ? | 9% | -1.2% | -21% | 0.0% | -2%[15.4 µM] | 4.4
O=C1CC(c2ccccc2)n2nc(NC(=O)c3ccccc3)nc2N1 (stereo unspecified) | 1.6 | 12% | / | 24% | 0.2% | -30% | -3.5
CCOC(=O)c1oc2ccccc2c1NC(=O)C1CCCCC1 | 1.5 | 8% | 14%[38.3 µM] | 17% | -3.9% | ? | 1.6
Cc1nnc(SCC(=O)NNC(=O)c2ccccc2)n1Cc1ccccc1 | / | 9% | 1.9% | / | 0.7% | -26% | -6.4
N/C(COc1ccc(Cl)cc1Cl)=N\O | 0.1 | -5% | 0.4% | 18% | -0.2% | 14% | -4.3
COc1ccc(C(=O)c2oc3ccc(Br)cc3c2NC(C)=O)cc1 | 5.7 | 6% | 0.7% | 23% | ? | -20% | -4.5
COc1cc(NC(=O)c2ccccc2Cl)c2ncccc2c1 | 1.0 | -13% | 6.0% | -11% | -0.8% | 9% | -6.8
(listing goes on)
SMILES | Menin MLL FP FL | gsp antag | PINK1 expr mod | Sfp inh | ClpP mod | gsp agonist | D2 ag
COc1ccc2oc(C)c(NC(C)=O)c2c1 | 2.6 | 12% | -2.7% | 8% | -1.5% | -27% | -3.6
O=c1[nH][nH]c(-c2ccccc2)c1C=Nc1ccc(Cl)cc1 | 0.0 | 1% | 1.8% | -13% | 1.0% | -50%[inhibitor] | -6.9
CCOc1ccc2nc(NC(=O)CN3C(=O)NC4(CCCC4)C3=O)sc2c1 | / | 4% | 3.2% | / | -7.1% | ? | -1.3
COC(=O)c1cc(C(=O)OC)cc(N2C(=O)CC(NNC(=O)c3ccccc3Br)C2=O)c1 (stereo unspecified) | 1.0 | -6% | 12%[38.3 µM] | 12% | -1.3% | -2% | -2.3
O=C(CN1CCC(n2nnc3cc(F)ccc32)CC1)NC1CCCCC1 | 3.0 | 6% | -1.7% | 14% | -0.5% | -1% | 1.4
CC1CCCCC1NC(=O)NC(=O)CCl (stereo unspecified) | 4.0 | -1% | 4.0% | ? | / | 3% | -3.9
Clc1ccccc1N1CCN(Cc2c[nH]c3ccccc23)CC1 | / | 17% | 14% | / | 1.0% | -2%[15.4 µM] | 0.3
COc1ccc(-c2nc3cnc(OC)nc3n(CCc3ccccc3)c2=O)cc1 | 1.1 | / | 2.3% | 16% | / | / | /
CCCCCCC(NC(=O)Cc1ccc2ccccc2c1)C(=O)O (stereo unspecified) | / | 0% | 2.7% | / | 0.3% | / | -0.8
O=C(CSc1ccc(Cl)cc1)Nc1cccc(-c2nc3ccccc3[nH]2)c1 | 3.1 | 8% | ? | ? | 13µM* | ? | 6.0
Cc1cc(C)n(C)c(=O)c1C#N | 1.8 | 7% | 3.2% | 10% | ? | 1% | -4.8
C=CCN1C(=O)C(Cc2cccc(Cl)c2)S/C1=N/N=C/c1ccco1 (stereo unspecified) | -0.8 | 3% | -1.1%[38.3 µM] | 3% | 2.0% | -1% | -3.2
O=C(OCn1nnc2ccccc2c1=O)c1ccc2ccccc2n1 | 2.5 | 7% | -0.6% | 16% | -0.3% | 3%[15.4 µM] | 4.9
CC(C)N1CCC(N2CCN(Cc3ccc4nsnc4c3)CC2CCO)CC1 (stereo unspecified) | 1.1 | 4% | -1.6% | 12% | / | -30% | -3.8
COCCNC(=O)c1ccccc1NC(=O)COc1ccccc1 | 5.6 | -8% | 46%[38.3 µM] | -4% | -6.1% | -11% | -4.4
COc1ccccc1N(C(=O)c1snc(C(N)=O)c1N)C(C(=O)NC1CCCCC1)c1cccc(OC)c1OC (stereo unspecified) | -0.3 | / | -0.8% | 6% | / | 7%[15.4 µM] | -3.1
O=C(CSCCS(=O)(=O)c1ccc(Cl)cc1)Nc1ccccc1 | 1.9 | 0% | -0.8% | 13% | -1.5% | -17%[15.4 µM] | -4.1
c1csc(-c2nnc(NC3CCCCC3)c3ccccc23)c1 | 3.4 | 40µM* | 32µM* | -3% | -10% | -9% | -0.5
Cc1ccc(C)c(N2CCN(C(=O)C3CCN(S(=O)(=O)c4c(C)noc4C)CC3)CC2)c1 | 4.3 | -30% | 0.1% | -2% | 0.2% | -26% | -5.1
CN(CC(=O)Nc1ccc(F)cc1)C(=O)Cn1nnc(-c2ccccc2)n1 | / | 0% | 1.3% | 12% | 0.2% | 1% | 0.8
O=C(CS(=O)(=O)Cc1ccccc1)Nc1ccccc1Cl | / | 5% | -0.6% | 29% | 0.8% | -9% | 2.0
C#CCOCCOCCOCCNc1nc(N2CCN(C(=O)[C@H](CCCCN)n3cc([C@@H](N)CC(N)=O)nn3)CC2)nc(N2CCN(C(=O)[C@H](CCCCN)n3cc([C@@H](N)CC(N)=O)nn3)CC2)n1 | / | 10% | 0.4% | / | -2.3% | -5% | -5.2
O=C(Nc1ccc2[nH]ncc2c1)c1ccc(F)cc1 | 3.0 | -3% | 2.3% | 5% | / | ? | 6.4
COc1ccccc1N1CCN(C(=O)CCc2c[nH]c3ccccc23)CC1 | -0.2 | 0% | 0.6% | 11% | -1.0% | 0% | -5.3
NC(=O)c1ccc(NC(=O)CSc2nncn2-c2ccccc2)cc1 | -3.0 | -25% | 1.4% | 4% | / | 27%[15.4 µM] | -0.4
CCOCCCNC(=O)c1ccc(-n2c(=S)[nH]c3ccccc3c2=O)cc1 | 1.8 | -58% | 2.6% | 20% | / | 6%[15.4 µM] | -5.6
CCOC(=O)c1c(C)[nH]c(C(=O)N/N=C/c2cccc(OC)c2)c1C | -1.0 | 3% | ? | 21% | -2.0% | -31%[inhibitor] | 1.2
O=[N+]([O-])c1ccccc1S(=O)(=O)NCc1cccnc1 | 2.1 | 12% | 1.4%&0.9% | 8% | 1.6% | -2%[15.4 µM] | 6.9
COc1ccc(NS(=O)(=O)c2cc(NC(=O)c3ccncc3)ccc2N2CCOCC2)cc1 | 3.0 | 3% | 4.8% | 18% | -0.6% | -6% | -1.0

Bioassay records (PubChem BioAssay)
